Bioassay records (PubChem BioAssay)
HIV TAR-Tat: HIV-1 TAR-Tat binding disruption | HIV-1 TAR RNA, Tat peptide displacement FRET; hits give high values | z-score (concentration not given with the values) | 100,000 tested, 0.6% active | AID 1259389;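 further: score is relative to mean and SD of negative controls; some compounds called inactive have numbers as strong as hits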
CDC25B CDK2 inh: human CDC25B-CDK2/CyclinA binding inhibition. HTRF CDC25B-CDK2/CyclinA binding, anti-His/anti-Flag; hits give high values. z-score (test concentration not listed). 94,000 tested, 0.72% active. AID 1259370;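 further: score is relative to mean and SD of negative controls; strong numbers were not always called active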
The depositor's hits bear a star; & = joins results of further samples.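 How the source made its calls: active means z-score from 3 up in half or more of its runs; inactive means the rest.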 Not all compounds are listed; rates above refer to the full screens.

SMILES	HIV TAR-Tat	CDC25B CDK2 inh
CC[C@@H]1C(=O)OC[C@@H]1Cc1cncn1C	3.27&0.06	4.81&0.21
